Screens (PubChem)
NPYLR7 agonist: mosquito NPYLR7 agonism; HEK293T NPYLR7/Galpha15, GCaMP6s calcium fluorescence; activation, % at 10 µM; 0.15% of 270,000 active; in the data active means activation above about 40%;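 further: 0% = vehicle and 100% = reference agonist at the receptor; some compounds past the cut are filed as inactive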
NPYLR7 agonist max-min: recorded beside NPYLR7 agonist, whose call it bears; activation, %; measured here: Max-Min RFU normalised activation; some inactives read as strong as hits;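 span of the calcium signal over five minutes; 0% = vehicle and 100% = native peptide agonist; compound fluorescence can raise it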
Starred values were filed as active, the others as inactive; & = joins results of further samples. Some of the compounds tested; rates above refer to the full screens.

SMILES | NPYLR7 agonist | NPYLR7 agonist max-min
Cc1ccccc1NC(=O)c1ccc(-n2nc(-c3ccc(Cl)c(Cl)c3)cc2N)cc1 | -7 | -10
CCN1CCN(c2c(CN(CC(C)C)C(=O)c3ccco3)c(C)nn2-c2cccc(F)c2)CC1 | -1 | 5
CC(=O)NC(=Nc1nc(C)cc(C)n1)Nc1ccccc1Cl | 0 | -6
Cc1cc(NC(C)c2cn3ccsc3n2)nc(-c2cccnc2)n1 (stereo not given) | 12 | 4
COc1ccc(Cc2noc(-c3cc(OC)c(OC)c(OC)c3)n2)cc1 | 1 | 0
Cc1c(NC(=O)Cc2csc(NC(=O)NC3CCCC3)n2)c(=O)n(-c2ccccc2)n1C | -4 | -4
O=c1oc2ccccc2n1CN1CCCC1c1ccc2c(c1)OCCCO2 (stereo not given) | 5 | 7
O=S(=O)(NC1=NCCCCC1)c1ccc(Cl)cc1Cl | 9 | 9
Cc1cc(Br)cc2c1NC(=O)C2=O | 5 | 3
CO[C@@]1(NC(=O)C2SC(=C(C(N)=O)C(=O)O)S2)C(=O)N2C(C(=O)O)=C(CSc3nnnn3C)CSC21 (stereo not given in full) | -17 | -5
CCONC(=O)c1cc2ccccc2n1Cc1ccccc1F | 11 | 8
COCC(=O)N1CCC(Oc2ccc(C(=O)N[C@H]3CCCCNC3=O)cc2)CC1 | 21 | 1
COC(=O)c1cn(C2CCCCC2OC(=O)c2cc3c(s2)CCC3)nn1 (stereo not given) | -1 | 0
O=S(=O)(NC1CCCCCC1)c1ccc(Cl)cc1 | -10 | -15
O=C(c1ccc2nc(Cc3ccccc3F)oc2c1)N1CCCC1c1ccccn1 (stereo not given) | 5 | -1
CCc1ccc2occ(CC(=O)N3CCNCC3C(=O)N3CCCC3)c2c1 (stereo not given) | 8 | 5
CCOC(=O)c1c(NC(=O)COc2ccc(Cl)cc2C)sc(C(N)=O)c1C | -8 | -13
Cc1cnc(Cn2ccnc2-c2c(C)sc3ccccc23)cn1 | -1 | -2
Cc1ccc(N(CC(=O)NCCCC2CCOC2)S(C)(=O)=O)cc1 (stereo not given) | 0 | -6
O=C(O)c1ccc(-c2ccccc2)[nH]c1=O | 8 | 25

Among those listed so far, these have a furan ring, fused or not.
SMILES | NPYLR7 agonist | NPYLR7 agonist max-min
CCN1CCN(c2c(CN(CC(C)C)C(=O)c3ccco3)c(C)nn2-c2cccc(F)c2)CC1 | -1 | 5
CCc1ccc2occ(CC(=O)N3CCNCC3C(=O)N3CCCC3)c2c1 (stereo not given) | 8 | 5

Remaining list, next part:
SMILES | NPYLR7 agonist | NPYLR7 agonist max-min
Cc1cc2ncn(Cc3ccc(C(C)(C)C)cc3)c2cc1C | 11 | 10
C/C(=N\NC(=O)c1cc(-c2cccc3ccccc23)n[nH]1)c1ccccc1O | 6 | 6
Cc1ccccc1Cn1cccc1CN(C(=O)Nc1cccc(Cl)c1Cl)C1CCCCC1 | -9 | -12
COc1cc(C)n(C(=S)SC)n1 | -12 | -12
COc1cccc(CN(Cc2cccc(C(F)(F)F)c2)Cc2nc(C(=O)NCCc3ccccn3)co2)c1 | -9 | 5
COc1cccc(N2C(=O)c3ccc(C(=O)Nc4nccs4)cc3C2=O)c1 | 1 | -4
Cc1[nH]n(-c2ccccc2)c(=O)c1N=Nc1ccccc1C#N | -4 | -9
CC(C)C(C(=O)N(C)CC1CCCC1)N1C(=O)c2ccccc2C1=O (stereo not given) | -1 | -1
CN(C(=O)CNc1cccc(S(=O)(=O)N2CCc3sccc3C2)c1)C1CCCCC1 | 6 | 3
CC(=O)O[C@@H](C)C(=O)Nc1cc(-c2onc3c2CCCC3)ccc1Cl | 4 | 4
Cc1cc(SC#N)ccc1NS(=O)(=O)c1ccc2c(c1)OCCO2 | 11 | 5
COc1ncccc1N(C)C(=O)c1cn(Cc2cccc(F)c2)nn1 | 12 | 9
CC(=O)NC(C)CC(=O)Nc1cccc(NC(=O)c2cccc(C)c2)c1 (stereo not given) | 12 | 2
O=S(=O)(NCCc1ccc(OC(F)F)cc1)c1ccc(Br)cc1 | 2 | 1
Cc1nc2ccc(C(=O)N3CCCC(Nc4ccc(C)c(C)c4)C3)cc2[nH]1 (stereo not given) | -2&-4 | -7&-4
CCCNC(=O)C1(C)CCN(Cc2ccc(-c3ccccc3)o2)C1 (stereo not given) | 0 | 0
O=C(Nc1cccnc1/C=C/c1ccccc1)C1CC1 | -1 | 8
C=CCN(CC(=O)N1CCc2sccc2C1c1ccc(Cl)cc1)C(=O)/C=C/c1ccc([N+](=O)[O-])cc1 (stereo not given) | -3 | 6
Cc1ccc(C)c(CN(Cc2ccc3c(c2)OCO3)Cc2nc(C(=O)NCC3CCCO3)co2)c1 (stereo not given) | 18 | 29
CCCc1ccc(-c2ccc(C(=O)N3CCC(CN)C3)cc2)cc1 (stereo not given) | -2 | -4
CC(=O)Nc1cccc(NC(=O)CSc2cn(CC(=O)N3CCCCCC3)c3ccccc23)c1 | 1 | 1
Cn1ncc2c(=O)n(CC(=O)NC3CCc4cc(Cl)ccc43)cnc21 (stereo not given) | 4 | 1
O=C(c1ccccc1)N1CCN(CN2CCN(C(=O)c3ccccc3)CC2)CC1 | 10 | 15
O=C(NC1CCCc2ccccc21)c1cncn1-c1cccc(-c2cccnc2)c1 (stereo not given) | 21 | 30
CC(=O)OCC(=O)N1CCC(Cc2ccc3c(c2)OCO3)CC1 | 2 | 2
CCN(CC)c1ccc(NC(=O)c2ccc(Cn3cncn3)cc2)cn1 | 20 | 15
CC(C(=O)N1CCC(n2nccc2NC(=O)C(C)(C)C)CC1)N1CCCC1=O (stereo not given) | 3 | 3
Cn1nnnc1SCCNC(=O)[C@H](N)c1ccccc1 | -10 | -13
Cc1nnsc1CN(C)C(=O)CCN1C(=O)COc2ccccc21 | 1 | 0
O=C1CSCN1CC(=O)N1CCC2(CCCCC2)C1 | 6 | 2
CCCCCN(CC(=O)Nc1cc(C(C)(C)C)nn1-c1ccc(C)cc1C)C(=O)Nc1ccccc1OCC | -2 | -1
O=C(O)CC12CC3CC(CC(Br)(C3)C1)C2 | 5 | 3
Cc1ccccc1N1C(=O)CN(C(=O)c2cc(C3CC3)nc3ccccc23)CC1C (stereo not given) | 10 | 2
C#CCSc1nc(N)c(C#N)c(-c2ccc(O)cc2)c1C#N | -1 | -3
O=C(Cc1ccc2c(c1)OCO2)NC1CCc2[nH]c3ccc(Br)cc3c2C1 (stereo not given) | -2 | 0
O=C1c2c(Cl)c(Cl)c(Cl)c(Cl)c2C(=O)N1CCc1c[nH]c2ccccc12 | 7 | 17
O=C(CSC1CCCCC1)NC1CCCC1 | -5 | -8
Cc1cc(-n2ccnc(SCC(=O)NC3CCCCC3)c2=O)ccc1Br | 2 | 2
O=C1C=CC(=O)N1c1ccccc1 | -2 | -10
COCCN(Cc1ccc2c(c1)OCO2)Cc1ccc(C(=O)OC)o1 | -5 | 1
O=C(Cc1csc(Nc2ccccc2)n1)NC1CCCC1 | 8 | -2
CCCCN(CC(=O)N1c2ccccc2-n2cccc2C1c1ccc(F)cc1)C(=O)c1ccc(Br)cc1 (stereo not given) | -9 | 2
Cc1ccc2[nH]cc(-c3ccc(C(=O)NCCCc4ccccn4)cn3)c2c1 | -15 | -14
CNCC(=O)Nc1cccc(NC(=O)Cc2ccccc2)c1 | 3 | -1
CN1CC(=O)N2CCN(C/C=C/c3ccc(F)cc3)CC2C1=O (stereo not given) | -3 | -3
COc1ccc2cc1Oc1ccc(cc1)C[C@H]1c3cc(c(OC)cc3CCN1C)Oc1c(OC)c(OC)cc3c1[C@H](C2)N(C)CC3 | 4 | 0
COc1ccccc1CCC(=O)N1CCC(O)(CN(C)C)C1 (stereo not given) | 4 | 4
CCN(CC)C(=O)COc1ccc(-c2nnc(Nc3ccc(O)cc3)c3ccccc23)cc1 | -16 | -21
COc1ccc2c(c1)-c1sc(C(=O)N3CCc4cc(OC)c(OC)cc4C3c3ccccc3)cc1CC2 (stereo not given) | 2 | -2
C=C(C)Cn1c(=O)c2c(nc3n2CCN3c2ccc(C)c(C)c2)n(C)c1=O | 16 | 6
O=C1OC(C(=O)NC2CCSc3ccccc32)Cc2ccccc21 (stereo not given) | 10 | 18
CC1CC(=O)c2cn[nH]c2C1 (stereo not given) | -1 | 31
CCOC(=O)CN(CC(C)C)C(=O)c1scnc1C | 3 | 3
C=Cc1ccc(CN2N=C(C(=O)N3CCCC3)S(=O)(=O)c3ccccc32)cc1 | -9 | -12
CNC(=O)CN(C(=O)Cc1cccc(OC)c1)[C@@H]1C[C@@H]2CO[C@H](c3ccccc3)C[C@@H]2C1 | 26 | 29
O=C1N(c2ccccc2)NC(c2ccco2)C12CCCCC2 (stereo not given) | 19 | 17
CCCCCc1ccc(C(=O)Nc2ccc(-c3cccc(-c4ccc5c(c4)OCCO5)n3)cc2)cc1 | 4 | 3
CC1(C)CC(=O)C(=C(O)CCCCC(O)=C2C(=O)CC(C)(C)CC2=O)C(=O)C1 | 5 | 5
COc1ccc(OC)c(CCNS(=O)(=O)c2c(C)nn(C)c2C)c1 | -4 | -5
CCNC(=O)NC(=O)C(C)Sc1n[nH]c(C(C)(C)C)n1 (stereo not given) | 8 | 6

A portion from further up, for reference:
SMILES | NPYLR7 agonist | NPYLR7 agonist max-min
COc1ccc2c(c1)-c1sc(C(=O)N3CCc4cc(OC)c(OC)cc4C3c3ccccc3)cc1CC2 (stereo not given) | 2 | -2
C=C(C)Cn1c(=O)c2c(nc3n2CCN3c2ccc(C)c(C)c2)n(C)c1=O | 16 | 6
O=C1OC(C(=O)NC2CCSc3ccccc32)Cc2ccccc21 (stereo not given) | 10 | 18
CC1CC(=O)c2cn[nH]c2C1 (stereo not given) | -1 | 31
CCOC(=O)CN(CC(C)C)C(=O)c1scnc1C | 3 | 3
C=Cc1ccc(CN2N=C(C(=O)N3CCCC3)S(=O)(=O)c3ccccc32)cc1 | -9 | -12

The listing picks up, starting 4 compounds before the break.
SMILES | NPYLR7 agonist | NPYLR7 agonist max-min
CCCCCc1ccc(C(=O)Nc2ccc(-c3cccc(-c4ccc5c(c4)OCCO5)n3)cc2)cc1 | 4 | 3
CC1(C)CC(=O)C(=C(O)CCCCC(O)=C2C(=O)CC(C)(C)CC2=O)C(=O)C1 | 5 | 5
COc1ccc(OC)c(CCNS(=O)(=O)c2c(C)nn(C)c2C)c1 | -4 | -5
CCNC(=O)NC(=O)C(C)Sc1n[nH]c(C(C)(C)C)n1 (stereo not given) | 8 | 6
O=C(O)c1cnc2c(c1)n(CCN1CCOCC1)c(=O)n2C1CCCCC1 | 4 | 7
CNC(=O)CSc1ncnc2sc3c(c12)CCCC3 | 3 | 4
O=C(NC(c1ccc(F)cc1)C1CC1)N1CC2C3CCC(O3)C2C1 (stereo not given) | -21 | -22
CCOC(=O)C1(C)CCCCCN1C(=O)c1ccc(N(C)C)cc1 (stereo not given) | -4 | -10
Cc1cc(=O)c2ccccc2n1CC(=O)N1C[C@H]2CC=CC[C@H]2C1 | 7 | 4
COc1c(C)cc(C(=O)N2CCC3(CC2)NCCNC3=O)cc1C | 4 | 2
COc1cc(-c2ccc(SC)nn2)cc(OC)c1OC | 13 | 7
O=C(OCCn1nc2ccccn2c1=O)c1cnc2ccsc2c1 | 0 | 11
NCC1CCN(C(=O)Cc2nc(-c3ccccc3)n[nH]2)C1 (stereo not given) | 2 | -3
O=C(NCc1nnc(SCC(=O)N2CCc3ccccc32)n1-c1cccc(C(F)(F)F)c1)c1ccc(S(=O)(=O)N2CCCC2)cc1 | 11 | 14
Cc1ccc(C(=O)NCCc2ccc(Cl)cc2Cl)o1 | 9 | 6
O=C(CNC(=O)c1ccccc1Cl)OCc1cccc(C(F)(F)F)c1 | 0 | 0
O=C(c1sccc1-n1cccc1)N1CCN(C2CCS(=O)(=O)C2)CC1 (stereo not given) | 1 | -1
Cc1ccc(-c2ccnc(N(C)CC3CCCN3C)n2)c(C)n1 (stereo not given) | -1 | 0
Cc1ccc(Cn2nnc3c(=O)n(Cc4cc(C)ccc4C)cnc32)cc1 | 3 | 7
CCOC(=O)CCc1c(C)nc2ncnn2c1N1CCN(C(=O)c2c(-c3ccccc3)noc2C)CC1 | 29 | 16
N#Cc1ccc(C(=O)OCC(=O)Nc2ccc(F)c(F)c2F)cc1 | 7 | 10
CCCc1cc(C(=O)N2CCN(c3ccc(N(C)C)cc3)CC2)n[nH]1 | -2 | -6
Cc1cc(C(=O)Cn2cnc3sccc3c2=O)c(C)n1C1CC1 | -1 | -2
COc1cccc(C=C2N=C(c3cc(C)cc(C)c3)OC2=O)c1OC | -4 | -3
OCC1(Cc2ccccc2)CCN(Cc2nc3ccccc3s2)CC1 | 3&1 | -1&-2
O=C(Oc1ccccc1)n1c(=S)oc2ccccc21 | -5 | -5
CNC(=O)C(C)N(C)Cc1nnc(CC2CCNCC2)n1-c1ccccc1 (stereo not given) | 8 | 6
O=C(c1ccc2nonc2c1)N1CCC(n2c(=O)oc3ccc(F)cc32)CC1 | 17 | 20
Cc1ccc(C(=O)Nc2ccc(N3CCN(C(=O)Nc4ccc(CC#N)cc4)CC3)nc2)cc1 | 25 | 21
CN(Cc1cccc(O)c1)C(=O)Nc1ccc(N(C)C)cc1C(F)(F)F | 1 | -1
CCN(CC)Cc1cnc2c(C(=O)N3CCC[C@H]3C(=O)OC)cnn2c1 | 4 | 2
CCOC(=O)c1ccccc1NC(=O)CSc1nc(=O)n2cccc(C)c2n1 | -2 | -5
